Assay outcomes deposited in PubChem by several laboratories.
Arbovirus anti: antivirals against arbovirus infection, primary screen, cell-based, full library, 10K replicate subset. 200,000 tested, 0.37% active. arbovirus infection cell-based antiviral screen. inhibition, % at 10 µM;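 active = inhibition from about 30%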;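 also: bluetongue infection of BSR cells; cell survival read as ATP light after 72 h; 0% = infected wells without compound and 100% = uninfected wells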
Mtb betalactam: beta-lactam sensitization of Mtb H37Rv, H37Rv; inhibition, % at 25 µM; M. tuberculosis H37Rv growth with meropenem, percent inhibition; hits of this screen are not shown here; 330,000 tested, 0.27% active;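 active = about 74% or more and at least 40 points above the plate without the antibiotic, then above 30% in a dose series; inconclusive = first-round hits that could not be retested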;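 also: growth measured after seven days incubation then overnight dye step; 0% = bacteria only wells and 100% = bacteria with antibiotic; twin plates without the antibiotic show which effects depend on it; some results filed as inactive read as strong as hits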
Mtb H37Rv: M. tuberculosis H37Rv growth inhibitors, H37Rv strain (AID 1626) | inhibition, % at 10 µM; hits with a dose series show IC50 in µM | M. tuberculosis H37Rv growth inhibition; higher % means a stronger effect | 220,000 tested, 0.95% active;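 active = confirmed in a dose series; inconclusive = inhibition above 80% but not taken into the dose series; inactive = below 80% or under 30% at every dose of the series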;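 also: bacteria incubated seven days before Alamar blue readout; 0% = bacteria only wells and 100% = bacteria with antibiotic wells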
YopH inh: YopH tyrosine phosphatase inhibitors, primary screen, biochemical, fluorescence Ex485/Em525; inhibition, %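 (about 10 µM by stock and volumes)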; 140,000 tested, 0.16% active; AID 898, 2007;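 active = inhibition of 50% or more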;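 also: controls were vehicle for no effect and minimum signal wells for full effect; inactives centre near -20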
RecA splice inh: Mtb RecA intein splicing inhibitors, primary screen, biochemical, fluorescence, HTS | Protein RecA (Mycobacterium tuberculosis (strain ATCC 25618 / H37Rv)), P9WHJ3 | cell-free RecA intein splicing | inhibition, %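 (about 9 µM by stock and volumes)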 | 290,000 tested, 0.75% active | AID 2221, 2009; in the data active = inhibition above about 30%; inconclusive = no clear call, values can overlap the other calls;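 also: 0% = vehicle wells and 100% = reference inhibitor control wells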
Target sequence (P9WHJ3 whole entry, looked up, canonical isoform): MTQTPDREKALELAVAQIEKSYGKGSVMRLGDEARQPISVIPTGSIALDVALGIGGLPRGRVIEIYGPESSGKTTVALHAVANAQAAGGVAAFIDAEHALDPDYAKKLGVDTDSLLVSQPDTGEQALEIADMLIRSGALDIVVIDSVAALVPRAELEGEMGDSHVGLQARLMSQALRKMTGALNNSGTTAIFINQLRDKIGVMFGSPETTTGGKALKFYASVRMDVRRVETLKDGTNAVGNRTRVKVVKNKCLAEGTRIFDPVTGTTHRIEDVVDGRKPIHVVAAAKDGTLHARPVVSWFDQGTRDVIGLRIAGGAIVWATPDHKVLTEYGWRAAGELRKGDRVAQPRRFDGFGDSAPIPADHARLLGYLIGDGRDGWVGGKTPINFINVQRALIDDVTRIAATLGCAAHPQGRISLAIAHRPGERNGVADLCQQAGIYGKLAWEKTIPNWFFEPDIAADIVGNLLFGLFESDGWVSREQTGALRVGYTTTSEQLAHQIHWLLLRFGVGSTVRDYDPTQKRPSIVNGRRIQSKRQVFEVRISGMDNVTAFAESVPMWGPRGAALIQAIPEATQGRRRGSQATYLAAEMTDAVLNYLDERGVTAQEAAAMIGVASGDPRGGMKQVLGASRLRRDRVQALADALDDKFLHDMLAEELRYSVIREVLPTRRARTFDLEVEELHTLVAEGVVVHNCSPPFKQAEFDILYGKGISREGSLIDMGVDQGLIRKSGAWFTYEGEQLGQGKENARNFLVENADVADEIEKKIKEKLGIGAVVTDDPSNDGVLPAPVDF
Arbovirus anti repeat: second read-out of Arbovirus anti, no call of its own (marks repeat the call); inhibition, %; measured here: 10K subset replicate screen; many hits read low in the repeat;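 first of two repeat runs on a subset; 0% = infected and 100% = uninfected wells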
Numbers without * were called inactive; ? = inconclusive; . = not tested or not shown.

SMILES | Arbovirus anti | Mtb betalactam | Mtb H37Rv | YopH inh | RecA splice inh | others
O=C(NC1CCCCC1)N(Cc1nc2ccccc2c(=O)[nH]1)C1CCCCC1 | 8 | 2 | 13% | -45 | -0.2
CC(C)c1nc(CNC(=O)CC2C(=O)NCCN2Cc2cccc(F)c2F)cs1 (centres undefined) | . | -13 | . | . | -1.6
CC(C)(C)NCC(=O)N/N=C/c1ccc(OCc2ccccc2)cc1 | -6 | -14 | -4% | . | 3.3
CCCCCOC(=O)CSc1nnc(-c2cc(OC)c(OC)c(OC)c2)o1 | 3 | 100 | ? | -7 | 2.3
COCC(C)NC(=O)c1cc(-c2ccc(O)cc2)on1 (centres undefined) | -10 | 16 | 8% | -22 | 0.1 | Arbovirus anti repeat=-4
CCOc1ccc(NC(=O)c2ccc(NC(=O)COC(=O)Cc3ccc(OC)cc3)cc2)cc1 | -12 | -11 | 4% | . | -2.7
O=C(CCCCn1c(=O)c2ccccc2n(Cc2ccc(F)cc2Cl)c1=O)NCc1ccco1 | -4 | -3 | -4% | -10 | 6.8
Cc1nc(C)n(C)c(=O)c1-c1ccccc1 | . | 0 | . | . | -1.2
O=C1CC(c2ccc(F)cc2)Cc2nc(N3CCN(c4ccccc4)CC3)ncc21 (centres undefined) | -24 | -1 | -6% | -19 | -0.9
CC(C(=O)N1CCN(Cc2ccccc2)CC1)c1ccc([N+](=O)[O-])cc1 (centres undefined) | . | -1 | 1% | . | 1.4
CCn1c(C)c(C)c2cc(C(=O)N3CCN(c4ccccc4)CC3)ccc21 | . | 89 | . | . | 8.5
C1CCCCCC(=NNc2nn[nH]n2)CCCCC1 | . | -1 | 2% | . | -4.7

For convenience, part of the list above.
SMILES | Arbovirus anti | Mtb betalactam | Mtb H37Rv | YopH inh | RecA splice inh | others
CC(C(=O)N1CCN(Cc2ccccc2)CC1)c1ccc([N+](=O)[O-])cc1 (centres undefined) | . | -1 | 1% | . | 1.4
CCn1c(C)c(C)c2cc(C(=O)N3CCN(c4ccccc4)CC3)ccc21 | . | 89 | . | . | 8.5

Further compounds:
SMILES | Arbovirus anti | Mtb betalactam | Mtb H37Rv | YopH inh | RecA splice inh | others
O=C(NCC(c1cccs1)N1CCc2ccccc21)c1ccccc1 (centres undefined) | . | -6 | . | . | -1.0
CCOC(=O)c1ccc(NS(=O)(=O)c2c(N)n(C)c(=O)n(C)c2=O)cc1 | . | -19 | -1% | . | 2.7
O=C(C1CCN(S(=O)(=O)c2cccc([N+](=O)[O-])c2)CC1)N1CCOCC1 | -2 | -1 | -7% | . | -3.1
COC(=O)c1cc2occc2n1Cc1ccc(Cl)cc1 | 6 | 13 | -2% | 7 | 4.7
Cc1ccsc1/C=N/n1c(=S)[nH]nc(C)c1=O | -6 | -9 | -3% | -23 | -3.3
COC(=O)C(O)(c1ccc(N=Cc2ccccc2O)c(C)c1)C(F)(F)F (centres undefined) | 12 | 3 | 5% | -39 | 1.0
COC(=O)N/N=C\c1c(C)nn(-c2ccccc2)c1Cl | -5 | 2 | -12% | -37 | -1.7
O=C(CSc1ncccn1)NCc1ccc(Cl)cc1 | 6 | 5 | 4% | . | -1.4
NC(=O)c1oc2ccc(Cl)cc2c1NC(=O)CN1CCOCC1 | -7 | 8 | 7% | 19 | 0.7
COc1cc(C(=S)N2CCOCC2)cc(OC)c1OC(=O)c1cccc(C)c1 | . | -11 | . | . | -1.5
COc1ccc(S(=O)(=O)N(C)CC(=O)NC2CC2)cc1 | 4 | -1 | -10% | 8 | -0.3
O=C(Nc1ccc(-c2csc(Nc3ccc(Cl)cc3)n2)cc1)c1cccc(C(F)(F)F)c1 | . | 34 | 17% | . | 6.9
CC1C/C(=N\NC(=S)NC(C)C)CC(C)(C)C1 (centres undefined) | -10 | 96 | -8% | -1 | 3.0
COc1ccc(-c2nc3c(c(=O)[nH]c(=O)n3Cc3ccccc3)n2C)cc1 | -4 | 18 | -2% | -21 | -3.7
CCCCCn1c(N)c(-c2nc3ccccc3o2)c2c([N+](=O)[O-])nn(C)c(=O)c21 | 1 | -1 | 0% | -19 | -0.1
COc1ccc(/C=C\C(=O)NCC(=O)N/N=C/c2ccc(O)cc2O)cc1 | . | 10 | 6% | . | -1.4
CCC(C(=O)Nc1cnccn1)c1ccccc1 (centres undefined) | 0 | . | -11% | -4 | -0.7
COc1ccc(C2Nc3ccccc3C(=O)N2c2ccc(Cl)cc2)cc1Cn1cc([N+](=O)[O-])cn1 (centres undefined) | -2 | 2 | 6% | -25 | 6.7
COc1cc(NC(=O)c2cccnc2)c(Cl)cc1NC(=O)c1ccccc1 | . | 20 | . | . | -1.0
Fc1ccccc1Nc1nc2c(s1)CCc1ccccc1-2 | -4 | . | 11% | -8 | .
O=C(NNC(=O)C1COc2ccccc2O1)c1cccc([N+](=O)[O-])c1 (centres undefined) | 8 | -4 | -18% | . | -0.2
CCCN1C(=O)/C(=C/c2ccco2)SC1=Nc1ccc(OC)cc1 | 0 | -3 | 18% | -1 | -2.7
O=C(N/N=C/c1ccncc1)c1cccc(S(=O)(=O)Nc2ccc(Cl)cc2)c1 | . | 6 | 1% | . | 4.7
Cc1cccc(-n2c(C)cc(/C=N/NC(=O)c3cccc([N+](=O)[O-])c3C)c2C)c1 | -4 | -16 | 5% | 8 | 1.3
COc1ccc(-n2ccc(-c3nn(-c4cccc(C(F)(F)F)c4)ccc3=O)n2)cc1 | -15 | 27 | 9% | -20 | 5.8
CCOC(=O)N(c1ccccc1)P1(=S)OCC(C)O1 (centres undefined) | 0 | -8 | -5% | -54 | 4.7
O=C(NC(=S)Nc1ccc(S(=O)(=O)Nc2nccs2)cc1)c1ccccc1F | -4 | -4 | -4% | . | -1.4
CS(=O)(=O)N1CCC(C(=O)N2CCN(C(c3ccccc3)c3ccccc3)CC2)CC1 | -6 | 0 | -6% | . | -3.2
CC(C)=C(NC(=O)c1ccccc1)C(=O)N1CCOCC1 | 3 | -12 | 11% | -38 | -4.2
CC(C)/C=N/Nc1nc2c(c(=O)n(C)c(=O)n2C)n1C | . | 6 | -12% | . | 0.7
CCCCOc1ccc(C(=O)N/C(=C\c2cccc([N+](=O)[O-])c2)C(=O)OCc2ccco2)cc1 | -8 | -2 | 5% | -39 | -1.5
CC(C#N)Sc1nc2ccccc2c(=O)n1-c1ccccc1 (centres undefined) | -10 | -2 | 2% | -28 | 6.0
NNC(=O)c1ccc(COc2ccc3ccccc3c2)o1 | . | -3 | 3% | . | 2.5
CC1CCCc2sc3nc(N4CCN(CCO)CC4)n4ncnc4c3c21 (centres undefined) | -20 | 3 | -3% | -13 | 2.1
C/C=C/c1ccc(OCC(=O)Nc2cc(OC)c(OC)c(OC)c2)c(OC)c1 | 1 | -10 | 2% | . | 6.4
COC(=O)/C=C/C(=O)Nc1cccc(C(F)(F)F)c1 | 1 | 0 | 0% | 9 | 2.1
CCOC(=O)CNC(=S)n1ncnc1N | 1 | -7 | 9% | . | -0.9
COc1cnn(C(C)(C)C)c(=O)c1Cl | -1 | 7 | 0% | 1 | -0.3
COc1ccc(N2CCN(C(CNC(=O)C(C)(C)C)c3cccnc3)CC2)cc1 (centres undefined) | 4 | -12 | 1% | . | -3.1
Cc1nc(SCC#N)c2c(C)c(C)sc2n1 | -2 | ? | -7% | -38 | -0.9
CCCCCn1c(Sc2ncccn2)nc2c1c(=O)[nH]c(=O)n2C | -2 | -5 | -12% | -26 | -5.2
CC(=O)c1c(C)[nH]c(C(=O)Nc2ccc(F)cc2F)c1C | . | -1 | . | . | -1.6
CSc1nsc(SC)c1C(=O)Nc1ccc(C)cc1 | 9 | -14 | -2% | -12 | 2.7
CCCCNC(=S)N1CCN(c2nc3ccccc3s2)CC1 | 6 | 0 | 3% | . | -1.3
COc1ccc(C(=O)Nc2cccc(C(=O)O)c2)cc1S(=O)(=O)N1CCCC1 | . | ? | . | . | 2.6
CC12CCC(C(=O)N3CCN(C(c4ccccc4)c4ccccc4)CC3)(OC1=O)C2(C)C (centres undefined) | -9 | 11 | 2% | 12 | -1.0
Cc1cccc(NC(=O)CCC(=O)Nc2nnc(C(F)(F)F)s2)c1 | . | 3 | -5% | . | 0.0
CCN(CC)C(=O)C(=O)N/N=C/c1cccc(Br)c1 | 2 | 1 | -8% | -16 | -2.4
COc1cccc(OC)c1C(=O)Nc1cccc(C(C)=O)c1 | 0 | -10 | -11% | 46 | -2.1
CC(=O)Cc1nsc(NC(=O)c2ccc(-c3ccccc3Cl)o2)n1 | -18 | ? | 3% | -25 | 1.4
CN(C)CCNCc1ccccc1OC1CCCC1 | 8 | 92 | 3% | -3 | -0.6
CC(Cc1ccccc1)C(=O)NCc1ccccn1 (centres undefined) | 8 | -4 | -14% | -22 | 2.4
COc1cc(C2Nc3ccc4ncccc4c3C3=C2C(=O)CCC3)cc(OC)c1O (centres undefined) | -12 | 8 | 3% | -26 | -2.3
COc1ccccc1-n1cnc2cc(NC(=O)c3ccco3)ccc21 | -19 | 6 | 7% | -8 | 1.4
O=S(=O)(c1ccc2ccccc2c1)N1CCN(S(=O)(=O)N2CCCCC2)CC1 | 0 | 0 | -2% | -26 | 0.3
COc1ccc(CCNC2=C(Cl)C(=O)N(CCc3ccc(OC)c(OC)c3)C2=O)cc1OC | 2 | -6 | 1% | -15 | -17
CC1(C)Cc2c(c(=S)nc(-c3ccccc3)n2CCN2CCOCC2)CO1 | 9 | 1 | -4% | 6 | 0.7
c1ccc(CN2CCNCC2)nc1 | . | -1 | . | . | -1.3
Cc1ccnc(N2CCC(C(=O)Nc3ccc4c(c3)OCCO4)CC2)n1 | 4 | -6 | -9% | . | 0.2
Cn1c(=O)c2cc(S(=O)(=O)NCCC(=O)NCCC3=CCCCC3)ccc2n(C)c1=O | -6 | -7 | -5% | -38 | -7.1

6 records picked at random from the list so far:
SMILES | Arbovirus anti | Mtb betalactam | Mtb H37Rv | YopH inh | RecA splice inh | others
Cn1c(=O)c2cc(S(=O)(=O)NCCC(=O)NCCC3=CCCCC3)ccc2n(C)c1=O | -6 | -7 | -5% | -38 | -7.1
COc1cccc(OC)c1C(=O)Nc1cccc(C(C)=O)c1 | 0 | -10 | -11% | 46 | -2.1
CC1(C)Cc2c(c(=S)nc(-c3ccccc3)n2CCN2CCOCC2)CO1 | 9 | 1 | -4% | 6 | 0.7
Cc1ccnc(N2CCC(C(=O)Nc3ccc4c(c3)OCCO4)CC2)n1 | 4 | -6 | -9% | . | 0.2
COc1ccc(CCNC2=C(Cl)C(=O)N(CCc3ccc(OC)c(OC)c3)C2=O)cc1OC | 2 | -6 | 1% | -15 | -17
COc1cc(C2Nc3ccc4ncccc4c3C3=C2C(=O)CCC3)cc(OC)c1O (centres undefined) | -12 | 8 | 3% | -26 | -2.3

The list goes on.
SMILES | Arbovirus anti | Mtb betalactam | Mtb H37Rv | YopH inh | RecA splice inh | others
CC[C@@H](C)[C@@H](C(=O)N1CCN(C(=O)OC(C)(C)C)CC1)n1cc(CCCN=C(NC(=O)OC(C)(C)C)NC(=O)OC(C)(C)C)nn1 | 2 | -4 | -12% | . | 1.1
CCC1CN(C(=O)NCc2ccc(C)cc2)c2cc(Cl)ccc2O1 (centres undefined) | . | 4 | . | . | -0.1
CC(=O)Nc1ccc(NC(=O)CCC(=O)NCCO)cc1 | 0 | -5 | -1% | -52 | 2.5 | Arbovirus anti repeat=-2
CCN(C(=O)CN1C(=O)c2ccc([N+](=O)[O-])cc2C1=O)C1CCS(=O)(=O)C1 (centres undefined) | . | -5 | . | . | -7.9
COc1ccc(C(=O)N2c3ccccc3C(=O)OC2c2ccc3c(c2)OCO3)cc1 (centres undefined) | 17 | 2 | 6% | -20 | 3.3
O=C(c1cc(N2C(=O)C3C4CCC(C4)C3C2=O)ccc1Cl)N1CCN(c2ccccc2)CC1 (centres undefined) | 9 | 6 | -3% | -23 | -3.8
O=C(O)C1CC=C(Cl)CC1C(=O)NCc1ccccc1 (centres undefined) | 4 | 7 | -4% | -5 | -4.4
O=C(Nc1ccc(N2CCOCC2)cc1N1CCOCC1)c1ccco1 | 3 | -3 | -7% | -3 | 0.2
Cc1ccccc1NC(=O)c1ccc(CSc2ncccn2)cc1 | 1 | 2 | 5% | -27 | 0.4
O=C(N1CCN(c2ccccc2)CC1)C1(S(=O)(=O)c2ccc(Cl)cc2)CC1 | . | -3 | . | . | 2.0
CNc1sc(C(=O)c2ccc(F)cc2)c(N)c1-c1nc2ccccc2s1 | -5 | 1 | 3% | -12 | -2.0
O=C(Nc1nc2ccc(Cl)cc2s1)c1ccc(Br)o1 | 6 | 3 | -1% | -5 | -1.6 | Arbovirus anti repeat=2

Only part of the results is shown; the hit share may differ from the screen's.
